Bioassay records (PubChem)
KCNQ2 block = KCNQ2 potassium channel inhibitors, primary screen, cell-based, CHO-K1, FluxOR thallium flux, B-score (AID 2156); O88943; 20 min; active compounds read low; only compounds with negative scores are shown here; some inactives read as strong as hits; B-score at 10 µM; 1.1% of 310,000 active;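 active = fluorescence ratio B-score at most minus 3 library SDs, with starting brightness B-score within 2 library SDs, cut at about -5.5 in these data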
Target sequence (O88943 whole entry, looked up): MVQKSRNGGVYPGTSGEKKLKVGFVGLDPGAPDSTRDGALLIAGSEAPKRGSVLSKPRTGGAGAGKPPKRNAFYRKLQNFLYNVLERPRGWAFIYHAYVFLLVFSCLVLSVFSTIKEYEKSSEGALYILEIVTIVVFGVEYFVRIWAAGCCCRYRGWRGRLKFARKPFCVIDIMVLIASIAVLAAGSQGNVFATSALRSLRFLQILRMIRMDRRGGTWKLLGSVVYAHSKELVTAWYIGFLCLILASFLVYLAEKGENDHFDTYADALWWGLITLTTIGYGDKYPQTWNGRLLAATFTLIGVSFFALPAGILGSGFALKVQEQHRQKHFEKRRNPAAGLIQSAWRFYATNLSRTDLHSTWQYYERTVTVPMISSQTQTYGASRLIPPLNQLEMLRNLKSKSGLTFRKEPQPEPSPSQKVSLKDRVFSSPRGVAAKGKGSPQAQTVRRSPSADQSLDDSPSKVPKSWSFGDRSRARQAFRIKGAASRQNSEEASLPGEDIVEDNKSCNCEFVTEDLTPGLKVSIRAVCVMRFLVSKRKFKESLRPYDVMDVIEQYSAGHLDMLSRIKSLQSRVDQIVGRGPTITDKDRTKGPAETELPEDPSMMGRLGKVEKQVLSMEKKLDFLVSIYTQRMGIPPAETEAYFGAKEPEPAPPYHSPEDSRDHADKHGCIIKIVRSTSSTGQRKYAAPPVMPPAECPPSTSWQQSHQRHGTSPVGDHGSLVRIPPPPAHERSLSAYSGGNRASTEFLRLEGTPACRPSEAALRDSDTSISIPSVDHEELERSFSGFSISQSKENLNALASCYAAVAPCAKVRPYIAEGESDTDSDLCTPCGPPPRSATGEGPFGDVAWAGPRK
KCNQ2 block baseline = further read-out of KCNQ2 block, marked with its call; B-score; measured here: initial fluorescence intensity artifact check;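 brightness before thallium and not channel activity; 0 = typical well and far values either way flag optical interference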
* = called active by the depositor; i = inactive.

KCNQ2 block baseline,KCNQ2 block,molecule
-1.2,i,CCN(CC)CCNC(=O)CCc1c(C)nc2c(c(C)nn2-c2ccc(C)cc2)c1C
-1.6,i,O=C1c2ccccc2C(=O)C1c1ccc2ccccc2n1
0.3,i,Cc1nc(NS(=O)(=O)c2ccccc2)sc1C(=O)NNS(=O)(=O)c1ccccc1
1.4,i,O=C(CCCCCn1c(=O)[nH]c2ccsc2c1=O)N1CCCCC1
2.6,i,O=C(Cn1c2ccccc2c2nc3n(c(=O)c21)CCS3)Nc1ccccc1
-0.06,i,CCC(c1nnnn1Cc1ccc(F)cc1)N1CCN(C2CCCCC2)CC1 (stereo not given)
-2.4,i,O=C(NCCN1CCOCC1)/C(=C\c1ccc(Br)cc1)NC(=O)c1cccs1
0.28,i,CS(=O)(=O)c1ccccc1C(=O)Nc1cc(Cl)ccc1-n1cncn1
1.1,i,c1cn2cc(CSC3CCCCC3)nc2s1
0.38,i,O=C(CN1C(=O)c2ccccc2C1=O)Nc1cccc(Cl)c1
-0.28,i,CCCCN=C1NN=C(c2cc3ccccc3o2)CS1
-0.76,i,O=C(Nc1ccccc1C(F)(F)F)c1cc(-c2ccco2)on1
-0.31,i,COc1ccc(-c2nc(Cn3c(SCc4cccc(F)c4)nc4ccncc43)c(C)o2)cc1OC
0.13,i,O=C(Nc1ccc(Cl)cc1)Nc1nc(-c2ccccc2O)cs1
2.9,i,Cc1ccc(-c2nc(C#N)c(NCc3ccco3)o2)cc1
1.8,i,O=C(CN1CCN(c2ccc(O)cc2)CC1)Nc1cc(S(=O)(=O)N2CCOCC2)ccc1Cl
0.02,i,COc1cccc(N/C=C/C(=O)c2ccc(OC)c(OC)c2)c1
6.8,i,NC(=O)c1cc(S(=O)(=O)NCCc2ccccc2)cs1
-0.04,i,COc1ccc(NC(=O)CCc2ccccc2)cc1NC(=O)c1ccco1
-0.38,i,CCOc1nc(Nc2ccc([N+](=O)[O-])cc2)nc(NC(C)(C)C)n1
-0.17,i,COc1ccc(NC(=O)Nc2cc(C(=O)O)ccc2N2CC3CC(C2)c2cccc(=O)n2C3)c(OC)c1 (stereo not given)
3.3,i,COc1ccc(CCNC(=O)COC(=O)c2ccco2)cc1OC
0.01,i,COc1ccc(S(=O)(=O)N2CCCCCC2)cc1C(=O)N(CC(C)C)C1CCS(=O)(=O)C1 (stereo not given)
1.8,i,O=C(COc1c(F)c(F)cc(F)c1F)NC(=O)NC1CCCC1

Ordered by formula weight (ascending): some entries from above.
KCNQ2 block baseline,KCNQ2 block,molecule
1.1,i,c1cn2cc(CSC3CCCCC3)nc2s1
2.9,i,Cc1ccc(-c2nc(C#N)c(NCc3ccco3)o2)cc1
-0.28,i,CCCCN=C1NN=C(c2cc3ccccc3o2)CS1
6.8,i,NC(=O)c1cc(S(=O)(=O)NCCc2ccccc2)cs1
0.02,i,COc1cccc(N/C=C/C(=O)c2ccc(OC)c(OC)c2)c1
0.38,i,O=C(CN1C(=O)c2ccccc2C1=O)Nc1cccc(Cl)c1
-0.76,i,O=C(Nc1ccccc1C(F)(F)F)c1cc(-c2ccco2)on1
-0.38,i,CCOc1nc(Nc2ccc([N+](=O)[O-])cc2)nc(NC(C)(C)C)n1
3.3,i,COc1ccc(CCNC(=O)COC(=O)c2ccco2)cc1OC
1.8,i,O=C(COc1c(F)c(F)cc(F)c1F)NC(=O)NC1CCCC1
-0.04,i,COc1ccc(NC(=O)CCc2ccccc2)cc1NC(=O)c1ccco1
0.28,i,CS(=O)(=O)c1ccccc1C(=O)Nc1cc(Cl)ccc1-n1cncn1
-2.4,i,O=C(NCCN1CCOCC1)/C(=C\c1ccc(Br)cc1)NC(=O)c1cccs1
0.01,i,COc1ccc(S(=O)(=O)N2CCCCCC2)cc1C(=O)N(CC(C)C)C1CCS(=O)(=O)C1 (stereo not given)
-0.17,i,COc1ccc(NC(=O)Nc2cc(C(=O)O)ccc2N2CC3CC(C2)c2cccc(=O)n2C3)c(OC)c1 (stereo not given)

Other results.
KCNQ2 block baseline,KCNQ2 block,molecule
-0.62,i,COCCCNC(=S)Nc1c(C)cc(C)cc1C
-0.14,i,O=C(CN1CCCc2ccccc21)NCCc1ccc(F)cc1
0.93,i,COc1cc(OC)cc(C(=O)NC(c2ccccc2)c2ccccc2)c1
-1.2,i,COc1ccccc1N=c1scc(-c2ccc3c(c2)NC(=O)CO3)n1CC1CCCO1 (stereo not given)
-2.7,i,O=C(NCCc1ccccc1F)C1CCC(=O)N(Cc2ccccc2F)C1 (stereo not given)
-0.98,i,COc1ccc(-c2csc3nc(C)nc(N4CCC(C)CC4)c23)cc1OC
0.36,i,N#CC1=C(N)Oc2n[nH]c(-c3cccs3)c2C1c1ccccc1C(=O)O (stereo not given)
-0.18,i,O=C(/C=C/NCC(=O)c1ccccc1)c1ccc(Br)cc1
0.85,i,C/C(=N\NC(=O)CN(c1ccc(C)cc1)S(C)(=O)=O)c1cccs1
-1.2,i,CCCc1nnc(NC(=O)CCC(=O)NCc2ccc(OC)cc2)s1
-1.3,i,COc1ccc(Br)cc1CN1CCCC(C(=O)N2CCCCCC2)C1 (stereo not given)
1.4,i,O=C(NCc1ccc(F)cc1)C1CCN(S(=O)(=O)c2cccnc2)CC1
0.19,i,Cc1nn2c(CN(C(=O)COc3ccccc3)c3ccccc3)nnc2c2ccccc12
-0.54,i,Cc1cnc(NC(=O)c2ccncc2)s1
-0.37,i,c1ccc2c(c1)oc1c(Nc3ccc4c(c3)OCO4)ncnc12
-0.06,i,COc1ccc(CC(=O)Nc2nc(-c3ccc(F)c(F)c3)cs2)cc1
-1,i,COC(=O)c1ccccc1NC(=O)c1noc2c1CC(C(C)(C)C)CC2 (stereo not given)
-0.65,i,C=CCN1C(=O)CC(C(=O)NC)SC1=Nc1ccc(C(=O)OCC)cc1 (stereo not given)
3.2,i,c1nc(NCCN2CCOCC2)c2c3c(sc2n1)CCCCC3
-3,i,COc1ccccc1N1CCN(C2CCN(C(=O)c3cccs3)CC2)CC1
0.63,i,COc1cccc(NC(=O)CSc2nc3ccccc3cc2Cc2ccccc2)c1
-0.86,i,CCCn1c(N2CCN(CC(=O)c3c(C)n(C)c4ccccc34)CC2)nc2c1c(=O)[nH]c(=O)n2C
-0.72,i,O=C(Nc1ccccc1Sc1ccccc1)c1ccccc1
-0.37,i,COc1ccc(S(=O)(=O)N(CC(=O)NCc2cccnc2)Cc2ccccc2)cc1
-2.1,i,COc1cc(CO)cc(Br)c1OCC(=O)Nc1cccc2ccccc12
-0.03,i,COc1ccc(OC)c(-n2nnnc2SCC(=O)Nc2ccccc2N2CCOCC2)c1
14,i,CC1=C(C#N)C(=O)N(C2CCS(=O)(=O)C2)C(=O)/C1=C\c1ccc(C)o1 (stereo not given)
0.79,i,C=CCn1c(SCc2ccccc2C#N)nnc1-c1cc(Br)ccc1O
-1.8,i,O=C(CSc1nnnn1-c1ccccc1)N1CCc2ccccc2C1
1.6,i,O=C(Nc1ccccn1)NC1CCCCC1
0.49,i,CC(c1ccccc1C(O)(c1ccccc1)c1ccccc1)N(C)C (stereo not given)
-1.1,i,c1ccc(-c2nc(CSc3n[nH]c(-c4cccs4)n3)cs2)cc1
-0.03,i,CN(C)C1=NCC(CSC(=N)N)S1 (stereo not given)
4.5,i,CN(C)S(=O)(=O)c1cccc(NC(=O)c2cc(-c3cccs3)nn2-c2ccccc2)c1
2.2,i,COc1ccc(NC(=O)c2ccc(CNc3c(NC4CCCCC4)c(=O)c3=O)cc2)cc1OC
1.5,i,N#Cc1ccc(N/N=C/c2ccccc2)c([N+](=O)[O-])c1
-0.72,i,CC(C)CC1=NC(C(F)(F)F)(C(F)(F)F)c2c(n(CC(C)C)c(=O)[nH]c2=O)N1
-0.06,i,O=C(Nc1nnc(C2=COCCO2)o1)c1cccc([N+](=O)[O-])c1
1.5,i,CN(C)c1cc[n+](CC(=O)Nc2ccc(Oc3ccccc3)cc2)cc1
-1,i,Cc1ccc(S(=O)(=O)N(CC(=O)N2CCC(C(N)=O)CC2)Cc2ccc(F)cc2)cc1
-0.25,i,Oc1ccc(N2CCN(c3nnnn3-c3ccccc3)CC2)cc1
0.39,i,Cc1cc(C(=O)Nc2ccc(Cl)cc2)on1
0.8,i,O=C(O)CNS(=O)(=O)c1ccc2[nH]c(=O)c(=O)[nH]c2c1
0.11,i,CNC(=O)C1CC(=O)N(c2ccc(OCC(=O)NCc3ccccc3)cc2)C1 (stereo not given)
-0.77*,-5.7*,O=C1NN(c2ccccc2)C(=O)/C1=C\c1coc2ccc(O)cc2c1=O
-0.07,i,O=C(OCC1CC(c2ccccn2)=NO1)c1ccc(Br)cc1 (stereo not given)
-0.22,i,O=C1CC(c2cc(Br)ccc2F)c2cc3c(cc2N1)CCC3 (stereo not given)
-1.3,i,Cc1onc(-c2c(F)cccc2Cl)c1C(=O)Nc1sc2c(c1C#N)CCC(C(C)(C)C)C2 (stereo not given)
0.71,i,Cc1c(C(=O)Nc2ccccc2)c2ccc(C(F)(F)F)cc2n1O
-0.12,i,CCOC(=O)Cn1c(-c2ccccn2)nc2ccccc21
1.4*,-13*,COc1ccc(C2CC(=O)c3c(O)cc(O)cc3O2)c(CC=C(C)C)c1OC (stereo not given)
2.6,i,COc1ccc(-c2csc(NC(=O)c3cc(C)on3)c2C#N)cc1OC
-1.6,i,CCOC(=O)C1CCCN(S(=O)(=O)c2cc(Br)cc3c2N(C(C)=O)CC3)C1 (stereo not given)
0.06,i,CCNC(=S)N1CCN(CCN=CC2=C(O)CC(C)(C)CC2=O)CC1
0.43,i,CCn1cc(C(=O)N2CCCC(CO)(Cc3ccccc3C)C2)cn1 (stereo not given)
0.84,i,O=C(CCC1CCCC1)Nc1ccc(OCC(=O)N2CCOCC2)cc1
0.85,i,CS(=O)(=O)N1CCC(C(=O)Nc2ccccc2F)CC1
-1.1,i,COc1ccc(CN2C(=O)c3cccnc3C2=O)cc1S(=O)(=O)N1CCCCC1
-1.9,i,CCn1c(SCC(=O)NNC(=S)Nc2ccc(C)cc2)nnc1-c1ccc(Cl)cc1
0.28,i,O=C(c1cnn(C(=O)COc2ccc(Cl)cc2)c1)c1ccccc1O

More compounds follow:
KCNQ2 block baseline,KCNQ2 block,molecule
1.5,i,O=C(O)c1cccc(N/N=C/c2ccc(-c3ccccc3)cc2)c1
-0.34,i,CCn1c(=O)c(C(=O)Nc2ccsc2C(=O)OC)c(O)c2ccccc21
0.01,i,CC1C=CCC2C(=O)N(c3cccc(C(=O)NCc4ccccc4)c3)C(=O)C12 (stereo not given)
-0.02,i,Cc1ccc(C)c(NC(=S)NC2CC3CCC(C2)N3Cc2ccco2)c1 (stereo not given)
-0.68,i,CC(C)(C)[C@H]1C=C(C(=O)NCc2ccccc2)O[C@@H](OCCCCO)C1
0.07,i,Cc1cccc(N2CCN(C(=O)c3ccc4c(c3)NC(=O)C(CSCc3cccc(F)c3)N4)CC2C)c1 (stereo not given)
0.31,i,Cc1cc(C)c(S(=O)(=O)c2cc(F)ccc2C)c(Cl)n1
1.2,i,O=C(CN1C(=O)NC2(CCCc3ccccc32)C1=O)NCc1ccco1 (stereo not given)
1.1,i,O=C(NCc1ccccc1)c1ccc(CSc2ccccc2)o1
-1.9,i,O=C(OCc1nc2ccc(Cl)cc2n1CCO)c1ccccc1
0.04,i,COc1ccc(-c2nc(-c3ccncc3)no2)c(OC)c1
-1.3,i,COC(=O)c1sc(N)c(C(=O)OC)c1COC(=O)CNS(=O)(=O)c1ccc(C)c(C)c1
0.47,i,CCN(CC(=O)NCc1cccs1)C(=O)c1cccc(S(=O)(=O)NC)c1
1.9,i,CCn1ccnc1CNC(=O)CC1C(=O)NCCN1Cc1ccccc1F (stereo not given)
1.9,i,Cc1ccc(O)c(NC(=O)C2CC(c3cccc(Br)c3)=NO2)c1 (stereo not given)
-1.8,i,CC(=O)N1N=C(c2c(-c3ccccc3)c3cc(C)ccc3[nH]c2=O)CC1c1ccco1 (stereo not given)
0.72,i,CN(C)CCOC(c1ccccc1)c1ccccc1
-0.01,i,CCOCC(=O)Nc1nnc(COC)s1
1.6,i,COc1ccc(S(=O)(=O)NNC(=O)C(=O)NNc2ccccn2)cc1
0.48,i,CC(=O)Oc1cc(O)c2c(=O)c(OC(C)=O)c(-c3ccc(OC(C)=O)c(OC(C)=O)c3)oc2c1
-2.3,i,O=C(NCc1ccccn1)c1ccc2nc(-c3ccco3)c(-c3ccco3)nc2c1
-2.4,i,O=C(O)C1CC(=O)N(Cc2cccs2)C1 (stereo not given)
-1.1,i,CCOC(=O)c1c(S(=O)(=O)NCC(=O)NCc2ccccc2)c(C)n(C)c1C
-0.82,i,COc1ccc(S(=O)(=O)N(C)c2ccc(C(=O)Nc3c(C)n(C)n(-c4ccccc4)c3=O)cc2)cc1
0.28,i,CC1(C)CC(C#N)(N2CCOCC2)CCO1 (stereo not given)
-0.23,i,OCCNCc1cccc(OCc2ccccc2Cl)c1
-1.8,i,O=C(c1ccc2nc(N3CCOCC3)sc2c1)N1CCN(C(=O)c2ccco2)CC1
0.44,i,CCCCCN(C(=O)CCC(=O)OCC(=O)c1ccc(C(C)(C)C)cc1)c1c(N)n(CCCC)c(=O)[nH]c1=O
0.96,i,CC1(C)CC(NC(=O)C23CCC(C)(/C(=N/O)C2)C3(C)C)CC(C)(C)N1 (stereo not given)
-1.1,i,Cc1cc(/C=C2/SC(=S)N(c3ccc([N+](=O)[O-])cc3)C2=O)c(C)n1-c1cccnc1
0.93,i,Cc1ccc(S(=O)(=O)NNC(=S)Nc2ccc(Cl)cc2)cc1
-0.08,i,CCN(CC)CCCC(C)NC(=O)c1c(NC(=O)c2ccccc2)sc2c1CCCC2 (stereo not given)
-0.02,i,Cc1nn(Cc2ccc(Cl)cc2)c(C)c1NC(=O)c1cc(-c2ccc3c(c2)OCO3)on1
-0.08,i,CCOC(=O)/C(=N\O)C1=NC(C)(C)Cc2ccccc21

A portion of the library, so the mix of outcomes need not match the whole.
